eIF4H inh = inhibitors of RNA binding by human eIF4H; eIF4H fluorescence polarization binding assay; inhibition, % at 35 µM; 0.94% of 290,000 active; AID 2012;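 active means 50% or more with normal probe brightness, or confirmed in later tests; about a fifth of its hits are not listed in these tables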;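 further: calls also rest on retests at 20 µM and on dose response follow-up; 0% = protein and probe with vehicle and 100% = probe without protein; strong numbers were not always called active; many hits fall short of the cut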
UUG fidelity = modulators of start codon recognition fidelity in yeast; S. cerevisiae UUG-firefly luciferase reporter, luminescence/redox ratio; activity score, % at 18.7 µM; 0.13% of 350,000 active; AID 602363;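 active means replicate mean at a twofold rise or more, about +100% in these data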;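 further: firefly luciferase made from a UUG start codon reports start codon fidelity; reporter light over untreated wells divided by growth signal over untreated wells; some hits fall short of that in this replicate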
Rce1 inhib = blocks yeast Ras-converting enzyme; Q03530; yeast membranes, quenched prenylated peptide cleavage fluorescence; calls only; 0.27% of 290,000 active; AID 2563;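 active means fall in fluorescence gain of 50% or more versus controls, with final raw signal at or below 3038400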;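 further: plate controls were neutral control wells for no effect and wells lacking membranes for full effect; tested at 10 µM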
Target sequence (Q03530 whole entry, looked up): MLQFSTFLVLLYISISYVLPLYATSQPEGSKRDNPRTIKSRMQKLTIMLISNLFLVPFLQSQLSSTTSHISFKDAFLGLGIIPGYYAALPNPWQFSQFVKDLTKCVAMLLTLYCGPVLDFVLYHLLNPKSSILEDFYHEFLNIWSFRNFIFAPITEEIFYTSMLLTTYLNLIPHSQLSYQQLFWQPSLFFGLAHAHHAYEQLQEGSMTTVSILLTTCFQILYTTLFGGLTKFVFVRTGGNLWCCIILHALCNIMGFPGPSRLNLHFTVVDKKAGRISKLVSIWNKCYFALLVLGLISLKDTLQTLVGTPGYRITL
MT1-MMP act inh = blocks activation of human MT1-MMP. GFP/RFP ratio change, % at 20 µM. P50281. 0.061% of 360,000 active. AID 651647. HT1080 RFP-PRO-GFP cells, GFP/RFP ratio fluorescence, overnight; percent of plate control window, DMSO zero;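 active means GFP/RFP ratio change of at least 30% with cell ATP level not reduced by more than half and red fluorescence within 50% of control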; further: strong numbers were not always called active
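Assay system: HT1080 RFP-PRO-GFP cells. Benchmarks: DMSO vehicle wells and RFP-L50D-GFP reporter cell wells. Times: overnight cell settling, then overnight compound exposure, 37 °C, 5% CO2. Compound: 20 µM single dose, 1% DMSO. Read-out basis: GFP/RFP fluorescence ratio.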
Env fusion inh = HIV envelope-mediated fusion inhibition; HeLa-JRFL Env/CEM21 cell fusion, luciferase; inhibition, % at 12.3 µM; 1.1% of 360,000 active; AID 651610;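 active means mean replicate inhibition score of at least 50 and every replicate individually at or above 50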;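 further: 0% = plate neutral controls and 100% = maraviroc near 300 nM; one replicate is shown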
CSC inhib = blocks cancer stem cells. cancer stem cell-like cells viability, luminescence. inhibition, % at 7.5 µM. 1.1% of 300,000 active. AID 2717;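 active means mean at 75% or more and at least half the replicates too; tested in HMLE shEcad cells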;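 further: 0% = median of negative and 100% = median of positive control wells; the first replicate is given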
PABP FP inh = PABP-poly(A) binding inhibition; P11940; PABP-poly(A) RNA binding, fluorescence polarization; 1% of 290,000 active; inhibition, % at 35 µM;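 active means 50% or more with normal probe brightness, or confirmed in later tests; about a fifth of its hits are not listed in these tables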;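 further: calls also rest on retests at 20 µM and on dose response follow-up; controls were probe without protein and protein plus probe with vehicle; some compounds called inactive have numbers as strong as hits; many hits fall short of the cut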
eIF4H inh retest = second read-out of eIF4H inh, no call of its own (marks repeat the call); inhibition, %; compound at 20 µM; confirmation average;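 mean of two retest wells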
PABP FP inh retest = also measured in PABP FP inh; calls as there; inhibition, %; compound at 20 µM; confirmation repeats;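 mean of two retest wells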
MT1-MMP act inh RFP = also measured in MT1-MMP act inh; calls as there; RFP signal change, %; measured here: RFP expression control read;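 0 = vehicle wells; hits needed this value within 50% of zero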
Active calls of the source: *; i = inactive; . = not tested or not shown. Only part of the results is shown, so the mix of outcomes need not match the whole.

SMILES	eIF4H inh	UUG fidelity	Rce1 inhib	MT1-MMP act inh	MT1-MMP act inh RFP	Env fusion inh	CSC inhib	PABP FP inh	others
Nc1nc2ccc(NC(=O)c3ccco3)cc2s1	0	-15	i	4	6	-66	1	-3
Cc1ccc(Cn2ccsc2=NC(=O)COC(=O)C(C)C)cc1	-2	-13	i	-3	-15	4	2	-1
COc1cc2cc(Oc3ccc4ccc(=O)oc4c3)c(=O)oc2cc1O[C@@H]1O[C@H](CO)[C@@H](O)[C@H](O)[C@H]1O	.	8	.	3	-2	-36	-6	.
Cc1ccc(S(=O)(=O)Nc2ccccc2C(=O)N2CCCC2)cc1	-6	-7	.	-6	1	6	-14	2
COc1ccc(C(=O)c2c(NC(C)=O)sc3c2CCN(C(=O)OC(C)(C)C)C3)cc1	-2	-2	i	-7	-7	3	-9	2
O=C(NC1CCCCC1)[C@H](O)[C@@H](O)C(=O)NC1CCCCC1	-6	-7	i	1	6	.	.	-5
CNS(=O)(=O)c1cccc(C(=O)OCC(=O)c2ccc(S(=O)(=O)N3CCCCC3)cc2)c1	.	-16	i	8	0	-11	-7	.
C/C(=N\Nc1nc(-c2ccccc2O)nc2ccccc12)c1ccccc1	-7	.	i	3	2	-14	-12	-1
CCOC(=O)N1CCN(Cc2nnc(-c3ccccc3C)o2)CC1	-11	-7	i	-2	-3	-11	-6	19
COc1cc(CC(=O)Nc2cc(S(=O)(=O)N3CCOCC3)ccc2N2CCCC2)cc(OC)c1OC	.	4	.	4	3	21	.	.

Among those listed so far, 2 have four or more nitrogen atoms.
SMILES	eIF4H inh	UUG fidelity	Rce1 inhib	MT1-MMP act inh	MT1-MMP act inh RFP	Env fusion inh	CSC inhib	PABP FP inh	others
C/C(=N\Nc1nc(-c2ccccc2O)nc2ccccc12)c1ccccc1	-7	.	i	3	2	-14	-12	-1
CCOC(=O)N1CCN(Cc2nnc(-c3ccccc3C)o2)CC1	-11	-7	i	-2	-3	-11	-6	19

Next section:
SMILES	eIF4H inh	UUG fidelity	Rce1 inhib	MT1-MMP act inh	MT1-MMP act inh RFP	Env fusion inh	CSC inhib	PABP FP inh	others
CN(Cc1ccccc1)C(=O)c1ccc(S(=O)(=O)N(C)c2ccccc2)cc1	.	-4	.	-2	-2	.	-3	.
Cc1ccccc1-c1cc(C(=O)NCc2ccco2)nn1CC1CC(c2cccc([N+](=O)[O-])c2)=NO1 (stereo not drawn)	.	-11	.	1	0	2	.	.
Cc1nc(SCC(=O)N(C)C2(C#N)CCCCC2)c2ccccc2n1	.	-3	.	-10	-4	.	1	.
COc1ccc(C(=O)c2ccc(Cl)cc2)cc1	-2	-18	i	3	-1	.	-2	7
CCc1ccc(NC(=O)c2ccc3nc(N)sc3c2)cc1	-8	-11	i	8	0	.	32	-2
COCOc1ccc(/C=C2/Oc3cc(OCOC)cc(OCOC)c3C2=O)c(OCOC)c1	.	-9	i	-8	-3	.	-9	.
Cc1ccc(/C=N\NC(=O)Cc2noc3ccccc23)cc1	-5	-6	i	2	-1	-22	15	-12
O=C(Nc1cccc(Cn2cccn2)c1)c1cc2c(s1)CCCC2	0	.	i	-1	-10	21	9	-10
COc1ccc(N2CCN(C(=O)COC(=O)Cc3cccc(OC)c3)CC2)cc1	.	.	i	-1	2	-6	-7	.
OCCC1CN(Cc2c(F)cccc2Cl)CCN1C1CCCCC1 (stereo not drawn)	-4	-13	i	5	7	-10	16	-1

Ordered by length of the SMILES (rising): three of the compounds above.
SMILES	eIF4H inh	UUG fidelity	Rce1 inhib	MT1-MMP act inh	MT1-MMP act inh RFP	Env fusion inh	CSC inhib	PABP FP inh	others
COc1ccc(C(=O)c2ccc(Cl)cc2)cc1	-2	-18	i	3	-1	.	-2	7
O=C(Nc1cccc(Cn2cccn2)c1)c1cc2c(s1)CCCC2	0	.	i	-1	-10	21	9	-10
Cc1nc(SCC(=O)N(C)C2(C#N)CCCCC2)c2ccccc2n1	.	-3	.	-10	-4	.	1	.

In the list so far, these have a halogen:
SMILES	eIF4H inh	UUG fidelity	Rce1 inhib	MT1-MMP act inh	MT1-MMP act inh RFP	Env fusion inh	CSC inhib	PABP FP inh	others
COc1ccc(C(=O)c2ccc(Cl)cc2)cc1	-2	-18	i	3	-1	.	-2	7
OCCC1CN(Cc2c(F)cccc2Cl)CCN1C1CCCCC1 (stereo not drawn)	-4	-13	i	5	7	-10	16	-1

Continued:
SMILES	eIF4H inh	UUG fidelity	Rce1 inhib	MT1-MMP act inh	MT1-MMP act inh RFP	Env fusion inh	CSC inhib	PABP FP inh	others
O=C(/C=C/Nc1ccc(F)cc1F)c1ccco1	2	.	.	0	0	-159	0	53	eIF4H inh retest=-7;PABP FP inh retest=5
CS(=O)(=O)c1ccc(-c2sc3ccccc3c2C#CCCO)cc1	.	1	.	2	-3	-23	63	.
COc1ccc(CC2(CO)CCN(C(C)COc3ccccc3)CC2)cc1 (stereo not drawn)	4	.	i	2	0	2	-3	16
CCN(CC(=O)NCc1ccc(F)cc1)CC(=O)Nc1ccccc1-c1ccccc1	4	14	i	-3	-9	27	8	-2
COc1ccc(C(=O)NC(=S)N2CC(C)OC(C)C2)cc1 (stereo not drawn)	-8	.	i	-2	3	-15	3	-11
O=C(OCc1ccccc1)N1CCC2CC1c1cc(-c3ccc4c(c3)OCO4)ccc12 (stereo not drawn)	.	-7	.	-3	-10	9	.	.
CC(=O)Oc1ccc(C(=O)Nc2ccccc2NC(=O)c2ccc(OC(C)=O)cc2)cc1	15	-6	i	-6	-5	4	-5	-4
CN(Cc1ccco1)C(=O)CN1C(=O)NC2(CCCC2)C1=O	.	-7	.	0	1	27	.	.
CCc1ccc(NC(=O)CCn2ccnc2C)cc1	-4	.	i	3	5	-6	-15	-6
COc1ccc(CNC(=O)c2cc(C(C)=O)c[nH]2)cc1	8	-16	i	2	2	12	-1	-6
Cc1ccc(CNC(=O)Cc2nc3nc(C)cc(C)n3n2)cc1	9	-6	i	6	2	.	1	4
COc1ccc(CCC(C)NC2C3CC4CC(C3)CC2C4)cc1 (stereo not drawn)	2	.	i	16	12	-2	.	-2
COc1ccc(S(=O)(=O)N(CCc2ccccc2)CC(=O)N/N=C/c2ccc3c(c2)OCO3)cc1	-3	.	i	-9	-12	-26	-5	0
O=C(NC12CC3CC(CC(C3)C1)C2)N1CCN(S(=O)(=O)c2ccc(Cl)cc2)CC1	0	-10	i	-4	-12	-9	-2	-8
CN(C(=O)c1ccc(NC(=O)Cc2ccc(NC(=O)C3CCN(C(=O)C4CC4)CC3)cc2)cc1)C1CC1	.	13	.	1	0	-44	-14	.
COc1ccc(N2CCN(CCCn3ccc(NC(=O)OCc4ccccc4)nc3=O)CC2)cc1	.	-20	.	-2	-6	-3	.	.
CC(C)c1onc(C(=O)Nc2cccc(O)c2)c1[N+](=O)[O-]	-1	.	i	1	0	-25	.	-3
CC(=O)Oc1cccc(Nc2ncnc3ccccc23)c1	-8	-24	i	-1	-1	19	18	2
O=C(Nc1nnc([C@@H]2C[C@H](O)[C@@H](CO)O2)s1)NC1CCCCC1	.	-15	.	-1	4	19	.	.
CCCc1nc2n[nH]c(N)c2c2c1COC(C)(C)C2	-5	.	i	6	-3	.	6	2
C/C(=N\Nc1nc(N2CCOCC2)nc(N2CCOCC2)n1)c1cccs1	-4	.	i	-11	-7	8	-5	10
Oc1cc(O)c2c(c1)O[C@H](c1ccc(O)c(O)c1)[C@H](O)C2	14	-5	i	0	1	-2	-1	5
CC(Oc1ccccc1)C(=O)NC1C(=O)N2C1SC(C)(C)C2C(=O)O (stereo not drawn)	-7	.	i	4	3	9	2	-1
Cc1ccc(N2C(=O)/C(=C/c3cccnc3)SC2=S)cc1	0	.	i	-2	-2	9	5	5
CC1(C)Cc2c(sc3nc(SCC(=O)N4CCOCC4)nc(N)c23)CO1	-13	-7	i	22	0	.	5	-11
COc1ccc(OCC(=O)Nc2ccc3c(c2)CCC3)cc1	.	-14	.	1	0	-3	15	.
CC1(c2ccc3c(c2)OCCCO3)NC(=O)N(CC(=O)NCCc2ccccc2)C1=O (stereo not drawn)	.	-4	.	1	-3	-21	-23	.
CN1C[C@H]2CON(C)[C@H]2C[C@H]1c1cccc(N2CCOCC2)c1	.	-1	.	2	5	-16	.	.
Cc1ccc(N2C(=O)C(c3c(C)[nH]n(-c4ccccc4)c3=O)(C(F)(F)F)C3=C2CC(C)(C)CC3=O)cc1 (stereo not drawn)	-4	.	i	3	-1	.	-18	-10
CCOc1ccc(CNc2ccc(S(N)(=O)=O)cc2)cc1	1	.	i	12	2	5	-15	-4

Two successive records already listed:
SMILES	eIF4H inh	UUG fidelity	Rce1 inhib	MT1-MMP act inh	MT1-MMP act inh RFP	Env fusion inh	CSC inhib	PABP FP inh	others
Nc1nc2ccc(NC(=O)c3ccco3)cc2s1	0	-15	i	4	6	-66	1	-3
Cc1ccc(Cn2ccsc2=NC(=O)COC(=O)C(C)C)cc1	-2	-13	i	-3	-15	4	2	-1

Further results follow:
SMILES	eIF4H inh	UUG fidelity	Rce1 inhib	MT1-MMP act inh	MT1-MMP act inh RFP	Env fusion inh	CSC inhib	PABP FP inh	others
CCOc1ccc(Nc2ncnc3c2cnn3Cc2ccccc2)cc1	3	-22	i	3	-3	.	20	14
Cc1ccc(C)c(Cn2nnc3c(=O)[nH]c(C(=O)NCC4CCCO4)nc32)c1 (stereo not drawn)	8	7	i	3	-3	32	.	-1
O=S(=O)(c1ccc2ccccc2c1)N1CCCOC1	7	-13	i	0	3	-20	16	3
CC[C@H](C)[C@@H]1NC(=O)[C@H]([C@@H](C)CC)NC(=O)[C@@H](CC(C)C)NC(=O)[C@H](Cc2ccccc2)NC(=O)[C@H](Cc2ccccc2)NC(=O)[C@@H]2CCCN2C(=O)[C@@H]2CCCN2C(=O)[C@H](C(C)C)NC(=O)[C@H](CC(C)C)NC1=O	.	-8	.	-1	-3	-9	.	.
COc1cc(C(=O)N(Cc2ccco2)Cc2cc3ccccc3[nH]c2=O)cc(OC)c1OC	2	-23	i	7	3	19	-6	3
COc1ccc(CCNC(=O)c2c(-c3ccccc3)noc2C)cc1OC	0	0	i	2	-2	.	-8	2

Assay outcomes deposited in PubChem by several laboratories.
